Screens (PubChem BioAssay)
MgrA DNA FP = S. aureus MgrA activity modulators, primary screen, biochemical, S. aureus Newman, fluorescence polarization. MgrA-DNA binding. inhibition, %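 (about 10 µg/mL by stock and volumes)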. actives 0.13% (n = 84,000). AID 602314, 2012;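 active means above 50% in either of two replicates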;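 further: 0% = protein plus DNA without compound and 100% = DNA alone without protein; higher means less MgrA bound to DNA so lower polarization; one replicate is shown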
S aureus helic = inhibitors of S. aureus replicative helicase, primary screen, biochemical, fluorescence unwinding readout | replicative DNA helicase (DnaC/DnaB), Staphylococcus aureus | purified S. aureus helicase, fluorescence unwinding assay; about half of the hits fall short of the stated cut | inhibition, %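 (tested at about 80 µM)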 | actives 0.05% (n = 120,000) | AID 485395, 2010;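 active means both duplicates at 50% or more, or one of them with a favoured structure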;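 further: 0% = mean of negative control wells and 100% = mean of positive control wells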
Starred values were filed as active, the others as inactive; . = no result given; & = joins results of further samples. This is a subset; count on the stated rates, not on these rows.

Below each SMILES: MgrA DNA FP, S aureus helic
CCN(CC)c1ccc2cc(S(=O)(=O)c3ccc(F)c(Cl)c3)c(=O)oc2c1
 : ., -67
N#Cc1c(-c2ccccc2)[nH]c(=S)[nH]c1=O
 : 9.2, 1
O=C(O)c1cnn2c(-c3ccccc3)ccnc12
 : -2.5, 4
O=c1[nH]ncn2nc(-c3ccc(F)cc3)cc12
 : ., -14
O=C(Sc1ccccn1)c1cnn(-c2ccccc2)c1C(F)(F)F
 : 3.1, .
CCCCNC(=O)c1cn(C2CCCC2)c(=O)c2c1c1ccccc1n2C
 : ., 40
O=C1NCCCCC1N=CNO (stereo unspecified)
 : -0.2, .
Cn1c(=NC(=O)C2CC(=O)N(c3ccc4c(c3)OCCO4)C2)sc2ccccc21 (stereo unspecified)
 : ., -7
Cc1ccc(N2C(=O)C3ON(c4ccccc4)C(c4ccco4)C3C2=O)cc1 (stereo unspecified)
 : ., -28
CC1(C)CC(=O)C2=C(C1)Nc1ccccc1N(C(=S)Nc1cccc(Cl)c1)C2c1ccco1 (stereo unspecified)
 : 0.4, -7
COc1ccc(C#N)cc1
 : ., -3
CCN(CC)S(=O)(=O)c1ccc2oc(SCC(=O)c3cc4ccccc4o3)nc2c1
 : ., 4
O=C1Nc2ccc(S(=O)(=O)N3CCCC3)c3cccc1c23
 : 3.2, -1
Cc1cccc(-c2nc(C#N)c(NCC(C)C)o2)c1
 : 0.7, 0
CC1CN(C(=O)c2cccc3c2-c2ccccc2C3=O)CC(C)O1 (stereo unspecified)
 : ., 9
C=C(C)CSCc1nc2ccccc2[nH]1
 : ., 5
CC(C)c1ccc(NC(=O)Cc2nn(C)c(=O)c3ccccc23)cc1
 : 4.3, 5
CC1(C)CC(=O)c2cc(-c3ccccc3)n(-c3ccc(S(N)(=O)=O)cc3)c2C1
 : -0.8, 4
Cn1c(C2CCCCC2)nc2ccccc21
 : 0.5, -10
CS(C)(=O)=NC(=O)c1cnn2c(C(F)(F)F)cc(C(F)(F)F)nc12
 : -1.6, .
O=c1c2ccccc2nc2n1CCS2
 : 0.1, 6
Cc1cccc(Nc2nnc(SCC(=O)Nc3cc(Cl)ccc3C#N)s2)c1
 : ., -11
CN(C)CCN1C(=O)C(=O)/C(=C(/O)c2ccc(Cl)cc2)C1c1cccs1 (stereo unspecified)
 : ., -19
CC(=O)Nc1cc(-c2ccccc2)[nH]n1
 : -2.5, .
S=c1[nH]ccn1-c1cc(Cl)ccc1Cl
 : 4.7, .
CCOC(=O)C1=C(C)N=c2s/c(=C/c3ccc(OC)c(OC)c3)c(=O)n2C1c1ccc(OC(C)=O)c(OC)c1 (stereo unspecified)
 : 2.0, .
Cc1nc2c3ccccc3nc(NNC(=O)CCC(=O)NC3CCCC3)n2n1
 : ., -19
CC1=C(C(=O)NCc2ccccc2)C2(CCCCCC2)OC1=O
 : ., 21
O=C(O)c1cc(S(=O)(=O)NN(Cc2ccccc2)c2ccccc2)ccc1O
 : ., 6
CC(=O)N1CCC(C(=O)Nc2ccccc2)(N(Cc2ccccc2)C(=O)c2cccnc2)CC1
 : ., 10

Filtered by structure, the entries above with a Cl atom
Below each SMILES: MgrA DNA FP, S aureus helic
CCN(CC)c1ccc2cc(S(=O)(=O)c3ccc(F)c(Cl)c3)c(=O)oc2c1
 : ., -67
CC1(C)CC(=O)C2=C(C1)Nc1ccccc1N(C(=S)Nc1cccc(Cl)c1)C2c1ccco1 (stereo unspecified)
 : 0.4, -7
Cc1cccc(Nc2nnc(SCC(=O)Nc3cc(Cl)ccc3C#N)s2)c1
 : ., -11
CN(C)CCN1C(=O)C(=O)/C(=C(/O)c2ccc(Cl)cc2)C1c1cccs1 (stereo unspecified)
 : ., -19
S=c1[nH]ccn1-c1cc(Cl)ccc1Cl
 : 4.7, .

Further compounds
Below each SMILES: MgrA DNA FP, S aureus helic
CCCCNC(=O)c1cc(=O)[nH]c2ccc(S(=O)(=O)N3CCC(C)CC3)cc12
 : ., -3
CCN1C(=O)/C(=C\c2ccc(NC(=O)C(F)(F)F)cc2)SC1=S
 : ., -110
COC(=O)c1sccc1NC(=O)Nc1ccccc1F
 : 0.2, 25
CN(C(=O)/C=C/c1cccs1)c1ccccc1
 : ., -3
CCC(=O)NCCCc1nc2ccccc2n1C(C)C
 : ., 6
COc1ccc(Oc2ncccc2NC(=O)c2ccccc2C(F)(F)F)cc1
 : 0.0, .
O=C(O)CCc1ccc(-c2ccccc2)n1Cc1ccco1
 : 21, 5
COc1ccc(S(=O)(=O)N2CCN(C(=O)c3cc4c(s3)CCC4)CC2)cc1
 : ., 10
CC1(C(=O)O)CCC(c2nc3c4ccccc4ncn3n2)C1(C)C (stereo unspecified)
 : ., 13
CC(=O)Nc1ccc(C(=O)COc2ccc(-c3nnco3)cc2)cc1
 : ., -18
Cn1c(=NC(=O)c2ccc(N3C(=O)CCC3=O)cc2)sc2ccccc21
 : ., -16
CN(C)C(CNC(=O)Cn1cnc2ccccc2c1=O)c1ccccc1 (stereo unspecified)
 : ., -13
COC(=O)CNC(=O)c1cc2c(=O)oc3ccccc3c2s1
 : -2.5, 6
O=C(O)CCC(=O)Nc1ccccc1Oc1ccc(Cl)cc1Cl
 : -1.2, .
CC(=O)OC(C(=O)N(C)c1nnc(-c2ccc(C)cc2)s1)c1ccccc1 (stereo unspecified)
 : ., 5
COc1ccc(C(=O)NCC(=O)OC2CCOC2=O)cc1 (stereo unspecified)
 : ., 1
O=C(c1ccccc1)N1CCN(c2cc(C(F)(F)F)nc3ccccc23)CC1
 : 0.5, .
Cc1ccccc1Nc1nc(CN2CCN(S(=O)(=O)c3ccccc3C#N)CC2)cs1
 : ., 12
O=C(NC1CCCCC1)C1CC(=O)N(Cc2ccccc2)C1 (stereo unspecified)
 : 5.5, 0
CCOC(=O)N1CCC(n2c(SCC(=O)Nc3ccc(C)cc3)nc3ccccc3c2=O)CC1
 : 1.6, 9
CC(Oc1ccc(Cl)cc1Cl)C(=O)NCCN1CCOCC1 (stereo unspecified)
 : -2.3, -5
COc1ccc(C2=N/C(=C\c3cn(C(C)=O)c4ccc(Br)cc34)C(=O)O2)cc1[N+](=O)[O-]
 : -0.6, .
CC1CC(C)CN(C(=O)COC(=O)c2ccc(S(=O)(=O)N(C)C)cc2)C1 (stereo unspecified)
 : ., 5
CC(=C1C(=O)c2ccccc2C1=O)N1CCC(Cc2ccccc2)CC1
 : -1.6, 3
O=C(Cn1sc2ccccc2c1=O)N1CCN(C(=O)c2ccco2)CC1
 : 1.9, 5
O=C(CN1C(=O)/C(=C/c2ccccc2)SC1=S)NC1CCCC1
 : 3.5, 9
N#Cc1cn[nH]c1C(F)(F)F
 : -1.9, .
CCS(=O)(=O)c1ccc(O)c(NC(=O)c2cccs2)c1
 : ., 3
CCCCn1c2ccccc2c2n[nH]c(=S)nc21
 : -2.6, 17&1
O=C(Cc1ccccc1)Nc1nnc(SCC(=O)N2CCCc3ccccc32)s1
 : ., -20

Additional results
compound | MgrA DNA FP | S aureus helic
Nc1[nH]nc2nc(N3CCCC3)nc(-c3ccccc3)c12 | 0.2 | 16
CCOc1ccc(N=CC=C2OC(C)(C)C(C)(C)O2)cc1 | 1.7 | 10
O=c1[nH]c(-c2ccc(O)cc2)nc2ccccc12 | -1.8 | .
Nn1c(COc2ccc(F)cc2)n[nH]c1=S | . | 15
COC(=O)C1=C(C)NC(=S)NC1c1cc2c(cc1Br)OCO2 (stereo unspecified) | -0.7 | 9
CCc1ccc(NC(=O)Cn2cnc3c(cnn3-c3ccccc3)c2=O)cc1 | 1.2 | 1
COc1ccc2c(c1OC)C(=O)OC2NC(=O)c1cnn(-c2ccccc2)c1N (stereo unspecified) | 4.2 | 14
CCOC(=O)c1[nH]c(CN(C)Cc2nc3ccccc3c(=O)[nH]2)c(C(=O)OCC)c1C | . | -12
CCCCc1ccc(NC(=O)c2c(Cl)nc3sccn23)cc1 | . | -20
CC1(C)CC(=O)C2=C(C1)OC(N)=C(C#N)C2c1ccoc1 (stereo unspecified) | 0.9 | -14
CC1(C2(O)CCCCC2)NCCc2ccccc21 (stereo unspecified) | . | 2
CN(C)c1ccc(NC(=O)c2c3c(nc4ccccc24)CCCC3)cc1 | 0.5 | 18
CCOC(=O)/C=C(\C)Nc1cccc(N/C(C)=C/C(=O)OCC)c1C | -2.1 | .
O=C(O)c1c(CN2CCN(c3ccccc3)CC2)c(O)c2ccccc2c1O | . | -21
CN=C(C)/C(C(=O)OC)=C(/O)c1ccc(Cl)cc1Cl | -3.0 | .
Fc1ccccc1N1CCN(c2nc(CN3CCOCC3)nc3sc4c(c23)CCCC4)CC1 | . | 8
COc1cc(CO)ccc1Oc1nnnn1-c1ccc(C(N)=O)cc1 | 1.1 | 5
CCCNC(=O)C12CC3CC(C1)CC(C(=O)NCCC)(C3)C2 | 0.3 | -23
O=c1cc(-c2ccccc2)nc(N2CCc3ccccc32)[nH]1 | -1.3 | 4
COCCNC(=O)c1ccc(CN2CCOCC2)cc1 | 0.1 | 19
O=C(CN1CCc2ccccc2C1)c1ccc(OC(F)F)cc1 | . | -11
Nc1c(C(=O)c2ccccc2)oc2ccccc12 | 1.1 | 2
CCOc1ccc(C(=O)CSc2nc3c(c(=O)n(C)c(=O)n3C)n2C(C)C)cc1 | 0.2 | 5
O=C(Nc1nc2ccccc2s1)c1cnccc1C(F)(F)F | -1.9 | .
Cc1c(C)n(CC(O)CNCC2CCCO2)c2ccccc12 (stereo unspecified) | . | 18
COc1nccn(-c2ccccc2)c1=O | . | 0
CCn1c(CCCNC(=O)Cc2ccccc2)nc2ccccc21 | . | -8
COc1ccccc1C1C(C#N)=C(SCC(=O)OCc2ccccc2)NC(=O)C1C#N (stereo unspecified) | -0.9 | .
Cc1ccc(NC(=O)C/C(N)=N/O)cc1Cl | -2.0 | .
O=[N+]([O-])c1ccc(-c2n[nH]c(=S)o2)o1 | 0.0 | .
O=C(NCCOc1ccccc1)c1ccc(=O)[nH]c1 | -5.2 | 13
CCOC(=O)CSc1nnc(CCCN2C(=O)c3cccc4cccc(c34)C2=O)n1-c1ccccc1 | 3.1 | .
C#CCn1c(O)c(N=NC(=O)c2cc(OC)c(OC)c(OC)c2)c2ccccc21 | 0.0 | 13
CCc1cc(=O)oc2cc(OC3CCCCC3=O)ccc12 (stereo unspecified) | -2.7 | 14
CCCCn1c(=N)n(CC(=O)OCC)c2ccccc21 | . | 40
CCn1c(C)cc(O)c(C(c2cccc(OC)c2)N2CCN(c3ccc(F)cc3)CC2)c1=O (stereo unspecified) | . | 5
O=c1sc2c(n1-c1ccccc1)SCC1COc3ccccc3C21 (stereo unspecified) | 8.2 | 5
Cc1sc2ncn(-n3cccc3)c(=O)c2c1C | . | 1
O=C1c2ccccc2CN1Cc1ccccc1 | -1.0 | .
Oc1ccccc1CN1CCN(Cc2ccccc2O)C1c1ccco1 | . | -8
O=C(Cn1nnc(-c2cccc(C(F)(F)F)c2)n1)NCc1ccc(Cl)cc1 | 2.5 | -24
O=C1CC2(CCCC2)C(=O)N1C1CCN(c2ncc(C(F)(F)F)cc2Cl)CC1 | -1.2 | .
Cc1nnc(SCc2ccco2)c2c1nnn2Cc1ccc(F)cc1 | . | 25
O=C(c1ccccc1F)N1c2ccccc2Sc2ccccc21 | -1.6 | 5
CCC(Sc1nc2ccccc2s1)C(=O)Nc1ccccc1C#N (stereo unspecified) | . | 4
COc1ccc(C2CC(c3cccs3)=NN2C(=O)CCC(=O)O)cc1 (stereo unspecified) | 0.9 | .
O=C(CCc1ccc(S(=O)(=O)N2CCOCC2)cc1)NCc1ccncc1 | . | -9
CCN1CCCC1CNC(=O)CSc1cc(=O)n(C)c2cc(Cl)ccc12 (stereo unspecified) | 0.9 | 15
C1CCC(OCCN2CCN(CCOC3CCCCC3)CC2)CC1 | -1.0 | 12
CCN(CC)c1nc(NCC(=O)O)nc(NCC(=O)O)n1 | . | -18

Following part
compound | MgrA DNA FP | S aureus helic
CC(=O)Nc1cccc(C(=O)O)c1 | -4.4 | 13
COCCNc1nc(-c2cccs2)cs1 | . | -8
CC(C)(C)NC(=O)N1CCC(C(=O)O)CC1 | . | -10
Nc1cc(N)nc(SCCN2CCOCC2)n1 | 0.0 | 13
CCCN1CCC(NC(=O)Nc2cc(C)ccc2C)CC1 | 1.0 | 4
O=C1c2ccccc2C(=O)N1CN(Cc1ccccc1)CN1C(=O)c2ccccc2C1=O | -1.1 | -2
CC(C(=O)Nc1ccccc1O)N1C(=O)C2C3C=CC(C3)C2C1=O (stereo unspecified) | . | 1
O=C(c1cc2ccccn2n1)N1CCCC1 | . | 9
CC(C)(C)C(=O)Nc1cccc(-c2ncon2)c1 | -2.2 | .
Cc1ccc(-n2nc(C)c(C(C)(O)C(F)(F)F)c2N)cc1 (stereo unspecified) | -1.3 | -10
COc1ccc(C(=O)Nc2cc(-c3nc4ccccc4s3)ccc2C)cc1 | 2.4 | .
COCCN1Cc2cccc(C(=O)N3CCN(C4CCCCC4)CC3)c2C1=O | 11 | 1
O=C1NC(=S)N(c2cc(Cl)cc(Cl)c2)C(=O)/C1=C/c1ccc2c(c1)OCO2 | 23 | .
CCc1ccc(NC(=O)CCn2c(=O)oc3ccccc32)cc1 | 1.0 | 15
Cc1ccc(-c2nnn(CC(=O)N(Cc3cccs3)C(C(=O)NCC3CCCO3)c3ccc(F)cc3)n2)o1 (stereo unspecified) | -0.9 | -4
O=C1c2ccncc2C(=O)N1CO | 1.0 | 2
O=C(O)CCCC(=O)Nc1cccc(C(F)(F)F)c1 | -0.3 | 13
COc1cc(NS(=O)(=O)c2c(C)c(C)c(C)c(C)c2C)cc(C(F)(F)F)c1 | 0.1 | .
O=P1(O)C=C(c2ccccc2)NC(c2ccccc2)=C1 | . | 19
CC1(C)CC(=O)C2=C(C1)N(Cc1ccco1)C(=O)C2(NC(=O)c1cccs1)C(F)(F)F (stereo unspecified) | . | 27
Oc1ccc(-c2cnc(-c3ccc(O)cc3)nc2)cc1 | . | -13
O=[N+]([O-])c1cc(Cl)ccc1NCNc1ccc(Cl)cc1[N+](=O)[O-] | -1.1 | .
Cc1c(C(=O)N2CCN(c3cccc(Cl)c3)CC2)sc2nc[nH]c(=O)c12 | . | 2
